PINK1 modulator: PINK1 expression modulation | Potency, µM (titrated, usually from 76.6 µM), without a hit: at the top dose activation (PINK1 increase), usual class: activators | AID 624263 | 410,000 tested, 0.2% active | PINK1 immunofluorescence, high-content cytometry, 24 h; active = well fitted activation curve with a large enough effect; inconclusive = small, poorly fitted or top-dose-only effect; inactive = flat fitted curve, though single readings scatter; cell line not stated here;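 also: potency is read from the fitted curve at half-maximal effect; % of control where 0% means no effect; nearly all actives have a fitted effect of over 65% in size; a mitochondrial uncoupler was the plate control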
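A stable cell line was treated with compounds at 5 concentrations for 24 hours, with CCCP as control. PINK1 levels and mitochondrial localization were measured by immunofluorescence with mitochondrial, cell and nuclear markers after fixation, read by laser-scanning cytometry.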
TRPML1 blocker: human mucolipin-1 channel inhibition | activity change, negative = inhibition, % (concentration not given with the values) | Q9GZU1 | TRPML1-inducible cells, Ca2+ dye fluorescence, FDSS; active compounds read low; inhibition of EC80 agonist-evoked calcium signal | AID 624415 | 390,000 tested, 0.02% active; in the data active means activity change below about -50%; inconclusive means about -30% to -50%; inactive means above about -30%;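 also: stimulus is agonist 54-4 at its EC80 concentration; % is scaled to controls: 0 for no effect and ±100 for the full control effect; the text of the record puts the active cut at -80%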
Target sequence (Q9GZU1 whole entry, looked up): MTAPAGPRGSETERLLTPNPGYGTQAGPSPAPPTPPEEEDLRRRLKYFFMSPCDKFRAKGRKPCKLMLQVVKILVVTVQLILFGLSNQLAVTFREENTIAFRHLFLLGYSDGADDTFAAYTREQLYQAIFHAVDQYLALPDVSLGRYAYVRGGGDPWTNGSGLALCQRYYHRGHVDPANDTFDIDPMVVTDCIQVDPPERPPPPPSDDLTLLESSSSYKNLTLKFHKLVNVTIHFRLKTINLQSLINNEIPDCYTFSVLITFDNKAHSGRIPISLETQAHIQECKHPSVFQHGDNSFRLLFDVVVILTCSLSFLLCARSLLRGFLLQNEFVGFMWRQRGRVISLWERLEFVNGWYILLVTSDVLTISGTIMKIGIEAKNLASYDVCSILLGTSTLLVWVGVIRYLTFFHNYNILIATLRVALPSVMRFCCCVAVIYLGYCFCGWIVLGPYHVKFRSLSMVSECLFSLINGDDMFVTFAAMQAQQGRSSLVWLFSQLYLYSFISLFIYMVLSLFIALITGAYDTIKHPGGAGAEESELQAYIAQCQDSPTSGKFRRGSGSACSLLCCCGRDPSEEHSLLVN
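Calcium fluorescence in TRPML1-DL cells induced overnight with Tet: a 110 s read after compound pin addition, then a 110 s antagonist read after challenge with 54-4 at 4 uM final (EC80).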
Six1-Eya2 blk: blocks human Six1 binding to Eya2 | Q15475+O00167 | AlphaScreen GST-Six1/His-Eya2 binding, biochemical; active compounds read low; control for the full effect not named in the record | activity change, % (test concentration not listed) | 360,000 tested, 0.56% active; in the data active = activity change below about -65%; inconclusive = about -30% to -65%; inactive = above about -30%; also: % is scaled to controls: 0 for no effect and ±100 for the full control effect
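AlphaScreen luminescence read after one hour at 37 °C in darkness. Pin-transferred compounds met GST-Six1 and His-Eya2 protein (5X stock 250 nM/500 nM) plus glutathione donor and Ni-chelate acceptor beads (5X, 50 ug/mL).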
D2 potentiator: human D2 receptor positive allosteric modulation; P14416; DiscoveRx D2 beta-arrestin cells, luminescence, 90 min; 100% = 57 uM dopamine signal; potentiation, % (concentration not given with the values); 360,000 tested, 0.23% active; active = potentiation of 50% or more; inconclusive = 30% to 50%; inactive = 30% or less;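 also: compound concentration not given in the record; tested on top of an EC20 dose of dopamine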
Target sequence (P14416 whole entry, looked up): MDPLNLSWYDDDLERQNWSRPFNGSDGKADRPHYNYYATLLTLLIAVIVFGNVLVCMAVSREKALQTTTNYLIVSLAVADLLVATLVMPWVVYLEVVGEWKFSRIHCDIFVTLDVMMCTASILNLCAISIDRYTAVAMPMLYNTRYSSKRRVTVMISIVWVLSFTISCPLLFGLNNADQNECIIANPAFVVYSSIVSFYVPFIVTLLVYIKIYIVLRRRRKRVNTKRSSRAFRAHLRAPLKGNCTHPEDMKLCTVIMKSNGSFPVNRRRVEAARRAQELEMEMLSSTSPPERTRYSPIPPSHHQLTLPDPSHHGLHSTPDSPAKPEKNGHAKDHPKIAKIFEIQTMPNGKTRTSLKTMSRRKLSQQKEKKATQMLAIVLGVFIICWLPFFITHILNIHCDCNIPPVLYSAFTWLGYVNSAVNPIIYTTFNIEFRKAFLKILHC
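PathHunter D2 cells, attached overnight at 37 deg C, received compound in DMSO plus dopamine at EC20 (50 nM final) for 90 min at 37 deg C. Beta-arrestin recruitment was read as luminescence after 1 h with detection reagent at ambient temperature.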
TRPML1 ag: agonists of human TRPML1 channel | Q9GZU1 | TRPML1-expressing cells, Ca2+ dye fluorescence, FDSS; host cell line not named in the record; reference of the full effect not given here | activation, % (test concentration not listed) | 410,000 tested, 0.12% active; in the data active = activation above about 50%; inconclusive = about 30% to 50%; inactive = below about 30%; also: 0% is about no effect; the text of the record puts the active cut at 80%
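Calcium fluorescence on an FDSS kinetic reader gave the read-out. Tet-induced TRPML1-DL cells were plated overnight, dye-loaded (Ca8 with quencher, 45-90 min, room temperature, dark), then read 110 s after compound addition, and again 110 s after 4uM final 54-4 (EC80).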
D2 ag: agonists of human D2 dopamine receptor (beta-arrestin); P14416; DiscoveRx PathHunter D2 beta-arrestin, luminescence, 90 min; 100% = 57 uM dopamine signal; activation, % (test concentration not listed); 360,000 tested, 0.084% active; in the data active = activation above about 40%; inconclusive = about 15% to 40%; inactive = below about 15%; also: compound concentration not given in the record; the text of the record calls up to 30% inactive
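DiscoveRx PathHunter D2 beta-arrestin cells (2,100/well) attached overnight, then compound-stimulated 90 min at 37 C in HBSS/10 mM HEPES/0.1% Tween-20 buffer; beta-galactosidase complementation read by luminescence after 1 h at ambient temperature. Dopamine 57 uM final (EC100) as control.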
An asterisk follows results filed as active; ? = inconclusive; nt = no result given; [ ] = dose if it differs, or a comment.

The opening two compounds, ahead of the listing:
Assay codes: A = PINK1 modulator; B = TRPML1 blocker; C = Six1-Eya2 blk; D = D2 potentiator; E = TRPML1 ag; F = D2 ag
1	O=c1c2ccccc2c(=O)n(-c2ccccc2)n1CCCCBr
  A: -1.2%; B: 6; C: -4; D: -10; E: 1.5; F: -0.8
2	O=C(CCn1nnc2ccccc21)Nc1nnc(Cc2ccc(F)cc2)s1
  A: -1.7%; B: 24; C: 0; D: -2; E: -0.2; F: -0.2

The whole of this part, from the start:
Assay codes: A = PINK1 modulator; B = TRPML1 blocker; C = Six1-Eya2 blk; D = D2 potentiator; E = TRPML1 ag; F = D2 ag
1	O=c1c2ccccc2c(=O)n(-c2ccccc2)n1CCCCBr
  A: -1.2%; B: 6; C: -4; D: -10; E: 1.5; F: -0.8
2	O=C(CCn1nnc2ccccc21)Nc1nnc(Cc2ccc(F)cc2)s1
  A: -1.7%; B: 24; C: 0; D: -2; E: -0.2; F: -0.2
3	CCCCn1c(N)c(N(CCOC)C(=O)c2cc3c(s2)CCC3)c(=O)[nH]c1=O
  A: -0.8%; B: -12; C: -2; D: -1; E: 0.5; F: -2.3
4	Cc1nnc(SCC(=O)N2CCN(c3ccccc3)CC2)n1C1CC1
  A: -0.2%; B: 8; C: 3; D: -18; E: 2.1; F: -2.9
5	CCCCn1c(N)c(N(Cc2ccccc2OC)C(=O)COc2cc(C)ccc2Cl)c(=O)[nH]c1=O
  A: -3.3%; B: -2; C: 3; D: -4; E: 0.8; F: 2.6
6	Cc1cccc(NC(=O)CCn2nc(-c3ccccc3)c3ccccc3c2=O)c1
  A: 1.0%; B: 9; C: nt; D: nt; E: 3.0; F: nt
7	C=CCN1C(=O)C(CC(=O)Nc2ccccc2)S/C1=N/c1nccs1 (stereo unspecified)
  A: 7.5%; B: 8; C: -7; D: -2; E: 1.5; F: -3.5
8	O=C1CN(C(=O)CNCc2ccccc2Cl)c2ccccc2N1
  A: -1.4%; B: -7; C: 1; D: 1; E: 1.1; F: 0.3
9	CCOc1ccc(S(=O)(=O)Nc2ccc3c(c2)OCO3)cc1
  A: 3.3%; B: 13; C: -1; D: -7; E: 1.1; F: -2.3
10	NC(=O)c1oc2ccccc2c1NC(=O)CCc1ccccc1
  A: 0.2%; B: -15; C: 3; D: -5; E: -0.4; F: 0.9
11	C#CCN(C[C@H]1[C@H](OC(=O)NC2CCCC2)[C@H](OC(=O)NC2CCCC2)C[C@H]2C(=O)N(c3ccccc3)C(=O)[C@@H]12)S(=O)(=O)c1ccc(C)cc1
  A: 4.8%; B: 6; C: -13; D: -2; E: 0.5; F: -1.6
12	CC(C)NC(=S)NNc1ncnc2sc3c(c12)CC(C)(C)OC3
  A: 0.6%; B: 0; C: -7; D: -3; E: 1.8; F: -2.3
13	COc1ccc(-n2ccnc(NCCc3ccc(Cl)cc3)c2=O)cc1OC
  A: -1.5%; B: 9; C: nt; D: nt; E: -0.3; F: nt
14	CC(=O)Nc1c(C)ccc(CNC(=O)COc2cc(C)ccc2C)c1C
  A: 0.7%; B: 14; C: 9; D: 0; E: 0.1; F: -5.4
15	COCCNC(=O)CCCn1c(=O)c2ccccc2n(Cc2cccc([N+](=O)[O-])c2)c1=O
  A: 4.0%; B: nt; C: 5; D: 2; E: nt; F: 0.8
16	O=C(C1CCN(S(=O)(=O)c2cccs2)CC1)N1CCc2ccccc2C1
  A: 1.9%[38.3 µM]; B: -13; C: 2; D: -1; E: 0.8; F: 2.3
17	CCOC(=O)C1CCN(C(=O)c2cc(OCC)c(OCC)c(OCC)c2)CC1
  A: 0.4%; B: 5; C: 7; D: -24; E: 0.2; F: -1.8
18	CC(C)C[C@@H](COCc1cccc(Cl)c1)N1CCN(C(=O)c2ccc(C(F)(F)F)cc2)CCC1=O
  A: ?; B: nt; C: 1; D: nt; E: -0.6; F: nt
19	Cc1cc(C)n(-c2nnc3n2N=C(c2c[nH]c4ccccc24)CS3)n1
  A: 3.1%; B: -20; C: -1; D: -8; E: 0.1; F: -1.6
20	CC(C)C(=O)N1CCN(c2ccccc2NC(=O)c2ccc(Br)o2)CC1
  A: -3.7%; B: 3; C: 0; D: 2; E: 0.4; F: -3.7
21	COc1cccc(CNC(=O)c2ccc(F)c(S(=O)(=O)N3CCCCC3)c2)c1
  A: 2.7%; B: 6; C: 2; D: -13; E: 1.2; F: -2.3
22	CN1CCN(C(=O)C2=C[C@@H](c3ccc(C(F)(F)F)cc3)C[C@@H](OCCCCO)O2)CC1
  A: -0.5%; B: -4; C: 6; D: -10; E: -0.6; F: -2.2
23	COc1ccc(C(=O)NCC(=O)O)cc1
  A: -1.4%; B: 9; C: 6; D: -4; E: -0.2; F: -2.2
24	O=C(c1c(Cl)cccc1Cl)N1CCCCCC1
  A: -1.0%; B: -7; C: 1; D: 12; E: 1.3; F: -3.8
25	CCCNC(=O)c1cc(Cl)c(NC(=O)C2=C(C)OCCS2)cc1OC
  A: 1.8%; B: -6; C: -12; D: -9; E: 0.5; F: -4.7
26	O=C1c2ccccc2C(=O)N1CCCCSc1nnc2c(Cl)cc(Cl)cn12
  A: -0.4%; B: -6; C: -5; D: -15; E: 0.9; F: 0.5
27	N/C(CC(=O)Nc1ccc(F)cc1)=N\O
  A: 1.1%; B: 37; C: 5; D: -14; E: -1.5; F: -7.3
28	CCN(CC)S(=O)(=O)c1cccc(C(=O)NCCCn2ccnc2)c1
  A: 0.4%; B: 19; C: 5; D: -11; E: 1.0; F: -2.4
29	Cn1c(=O)[nH]c(=O)c2c1nc(Br)n2C/C=N/Nc1ccccc1
  A: 0.0%; B: 0; C: 0; D: -17; E: 0.1; F: -12
30	O=C(NC1CCN(C(=S)Nc2ccc(F)cc2)CC1)C1CCCCC1
  A: 0.6%; B: 20; C: 3; D: -9; E: -0.1; F: -2.3

Record cards, as listed above:
N/C(CC(=O)Nc1ccc(F)cc1)=N\O reads PINK1 modulator: 1.1%; TRPML1 blocker: 37; Six1-Eya2 blk: 5; D2 potentiator: -14; TRPML1 ag: -1.5; D2 ag: -7.3
Cn1c(=O)[nH]c(=O)c2c1nc(Br)n2C/C=N/Nc1ccccc1 reads PINK1 modulator: 0.0%; TRPML1 blocker: 0; Six1-Eya2 blk: 0; D2 potentiator: -17; TRPML1 ag: 0.1; D2 ag: -12
COc1ccc(C(=O)NCC(=O)O)cc1 reads PINK1 modulator: -1.4%; TRPML1 blocker: 9; Six1-Eya2 blk: 6; D2 potentiator: -4; TRPML1 ag: -0.2; D2 ag: -2.2

Following part:
Assay codes: A = PINK1 modulator; B = TRPML1 blocker; C = Six1-Eya2 blk; D = D2 potentiator; E = TRPML1 ag; F = D2 ag
31	Cc1cccc(Nc2ccc(NCc3ccccc3)nn2)c1
  A: -0.9%; B: -2; C: -3; D: -5; E: 2.5; F: 0.9
32	O=[N+]([O-])c1ccc(-c2cn3c(n2)SCC3)cc1
  A: 1.1%; B: ?; C: 1; D: 2; E: 0.6; F: 0.1
33	Cc1cc(-c2ccc(Cl)cc2)n2ncnc2n1
  A: 0.6%; B: 15; C: 4; D: -3; E: 2.9; F: -1.4
34	CCc1ccc(NC(=O)CSc2nnc(-c3ccco3)o2)cc1
  A: 1.5%; B: 5; C: 0; D: 0; E: -0.1; F: 2.5
35	O=S(=O)(Nc1nc2ccccc2nc1Nc1cccc(S(=O)(=O)N2CCCCC2)c1)c1ccccc1
  A: 25µM*; B: 34; C: -11; D: ?; E: 1.0; F: 13
36	Cc1ccc(S(=O)(=O)Nc2ccccc2N=Cc2ccc([N+](=O)[O-])cc2[N+](=O)[O-])cc1
  A: -2.1%; B: 7; C: -23; D: 15; E: 3.2; F: 13
37	CC(C)C(=O)Nc1nnc(CSCc2ccccc2F)s1
  A: 0.6%; B: -7; C: 4; D: 7; E: -0.7; F: -2.2
38	COc1ccc(/C=C/C2=NNC(=O)CC2)cc1
  A: -0.3%; B: 6; C: 3; D: -4; E: -0.4; F: -1.9
39	CC(=O)N1CCCc2cc(S(=O)(=O)N(C)Cc3ccccc3)ccc21
  A: -1.5%; B: -3; C: 3; D: -23; E: 2.0; F: -2.8
40	COc1ccc2[nH]c(C(=O)Nc3ccc(F)cc3Br)cc2c1
  A: 2.2%; B: -16; C: 1; D: 1; E: 0.7; F: -0.4
41	CC(=O)Nc1ccc(S(=O)(=O)N(C)c2ccc(OCCOc3ccccc3F)cc2)cc1
  A: 0.7%; B: 8; C: -14; D: -38; E: 1.7; F: 3.0
42	C[C@]12C=C[C@H](O)CC1=CCC1C2CC[C@@]2(C)C1CCC21OCCO1 (stereo partly specified)
  A: 5.3%; B: 13; C: 3; D: 5; E: -1.1; F: 9.6
43	CC(C)CCNC(=O)c1ccc2c(c1)N(Cc1cccc(Cl)c1)C(=O)c1ccccc1S2
  A: 0.3%; B: 43; C: nt; D: nt; E: 2.7; F: nt
44	COc1ccc(C(C)(O)c2nc(-c3cccc(C(C)C)c3)cs2)cc1 (stereo unspecified)
  A: 1.2%; B: nt; C: 17; D: -2; E: 0.4; F: -3.6
45	Cc1ccc(C)c(N2CCN(C(=O)c3cc(S(=O)(=O)N4CCOCC4)ccc3F)CC2)c1
  A: 2.0%; B: -3; C: -8; D: -4; E: -0.1; F: -2.2
46	COc1ccc(-n2cc(CNCC3CC(=O)N(C4CC4)C3)c(-c3ccccc3Cl)n2)cc1 (stereo unspecified)
  A: -0.5%; B: 2; C: -9; D: -11; E: -0.3; F: -0.1
47	COc1ccc2c(c1)CCc1c-2n[nH]c1C(=O)O
  A: 2.1%; B: -11; C: 5; D: 2; E: -0.1; F: 1.3
48	O=C(CCCOc1ccccc1)N1CCc2ccccc2C1
  A: 1.1%; B: 5; C: 11; D: -8; E: 0.0; F: -3.2
49	CC(C)C(C(=O)NC(C)(C)C)N(CCN1CCOCC1)C(=O)CNS(=O)(=O)c1ccccc1 (stereo unspecified)
  A: -0.9%; B: 8; C: 13; D: 18; E: -1.6; F: 0.4
50	COc1ccc(-c2noc(CC(=O)N(C)c3cc(Cl)c(OC)cc3OC)n2)cc1
  A: 0.5%; B: -3; C: nt; D: nt; E: 0.0; F: nt
51	CCCNC(=O)c1[nH]c(C)c(C(C)=O)c1C
  A: -0.2%; B: 2; C: -1; D: -11; E: -0.6; F: 0.0
52	COc1ccc2c(c1)CCC(C)N2S(=O)(=O)c1ccc(C2CNC(=O)C2)cc1 (stereo unspecified)
  A: -5.2%[38.3 µM]; B: 4; C: 1; D: -18; E: 0.3; F: 2.4
53	O=S(=O)(Nc1ccccn1)c1ccc(-n2cccn2)cc1
  A: -0.3%; B: 13; C: 15; D: -2; E: 0.9; F: -3.3
54	O=C(Nc1cccc(F)c1)C1CCN(C(=O)Cc2ccccc2)CC1
  A: 0.9%; B: 6; C: 15; D: -25; E: 0.0; F: -1.3
55	CCCCN(N=Nc1nonc1OC)c1nonc1OC
  A: 3.5%; B: -7; C: 5; D: -44; E: 1.7; F: -3.2
56	Cc1cc(C)c(NC(=O)Cn2nnc(C(=O)NCc3ccco3)c2N)c(C)c1
  A: 3.9%; B: -11; C: -1; D: -11; E: -0.1; F: -0.8
57	O=c1c2ccccc2nc(N2CCN(c3ccccc3)CC2)n1Cc1ccccc1
  A: -1.0%; B: -7; C: 1; D: -4; E: 0.1; F: 3.8

Bioassay records deposited in PubChem by National Center for Advancing Translational Sciences (NCATS).
